WNV NS2B-NS3 inh – blocks West Nile virus NS2B-NS3 protease activity | WNV NS2B-NS3 protease, fluorogenic substrate Ex360/Em465; stronger effect = lower value | z-score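 (tested at a level between 10 and 100 µM)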 | 0.18% of 65,000 active;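 active = z-score at -3 or under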;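 note: score is relative to mean and spread of the compound wells of a plate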
* hit, by the source's call.

What do the screens show for `CC(C)(C)NCC(O)COc1cccc2c1C[C@H](O)[C@H](O)C2` (stereo partly specified)?
WNV NS2B-NS3 inh: 0.22

Source: PubChem (University of Pittsburgh Molecular Library Screening Center)

Not all compounds are listed; rates above refer to the full screens.
